Screening data: PubChem, ICCB-Longwood Screening Facility, Harvard Medical School
E coli growth = E. coli growth inhibition, primary screen, OD600; OD600 absorbance (test concentration not listed); 330,000 tested, 0.21% active; AID 1053175, 2014; Escherichia coli growth, 23 h; active compounds read low;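 active = OD600 absorbance below the run mean of sample wells minus 3.6 SD, in any replicate, cut at about 0.56 in these data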;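 also: stock transfer was 300 nL into about 60 µL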
UCH37 DUB inh = inhibitors of human UCH37 deubiquitinase, primary screen, biochemical, Ub-AMC cleavage, fluorescence; purified proteasome/UCH37; inhibition, % (concentration not given with the values); 330,000 tested, 0.33% active; Ubiquitin carboxyl-terminal hydrolase isozyme L5 (Homo sapiens), Q9Y5K5; AID 588478, 2011;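 active = mean of two replicates above 20%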;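 also: 0% = compound-free wells with enzyme and 100% = wells lacking proteasome; stock transfer was 100 nL into about 20 µL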
Target sequence (Q9Y5K5 whole entry, looked up): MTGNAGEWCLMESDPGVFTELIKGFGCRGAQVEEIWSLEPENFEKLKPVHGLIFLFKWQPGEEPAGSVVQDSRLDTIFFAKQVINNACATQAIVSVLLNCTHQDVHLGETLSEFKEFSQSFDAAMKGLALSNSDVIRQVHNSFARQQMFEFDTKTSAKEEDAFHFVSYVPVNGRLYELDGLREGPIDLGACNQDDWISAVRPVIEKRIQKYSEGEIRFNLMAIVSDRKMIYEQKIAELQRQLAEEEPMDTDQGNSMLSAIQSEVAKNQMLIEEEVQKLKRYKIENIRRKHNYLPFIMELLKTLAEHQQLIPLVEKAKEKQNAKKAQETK
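Signal – fluorescence, ex 355 nm, em 460 nm · System – Proteasome-bound UCH37 · Input – 0.15 nM proteasome as dispensed · Timing – 30 min preincubation with enzyme, 25 min cleavage at room temperature · Read-out basis – percent inhibition of cleavage signal versus uninhibited and no-proteasome wells · Medium – Tris-HCl pH 7.4 with ATP-MgCl2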
The depositor's hits bear a star; i = inactive. An excerpt; rates above refer to the full screens.

SMILES | E coli growth | UCH37 DUB inh
Cc1ccc(SCCC(=O)NN=Cc2ccccc2O)cc1 | 0.73 | -6.0
Cc1cccc(NCC(=O)NN=Cc2cccc(Oc3ccccc3)c2)c1 | 0.71 | 1.9
CN1/C(=C\C=NO)C(C)(C)c2ccccc21 | 0.74 | 6.1
Cc1cc(Sc2nnc(N=CN(C)C)s2)c2ccccc2n1 | 0.62 | 8.3
Cc1cc(C(=O)NN=Cc2c(C)nn(-c3ccccc3)c2Cl)n[nH]1 | 0.71 | 3.4
CC(=NNS(=O)(=O)c1ccc(Cl)cc1)c1ccncc1 | 0.73 | -0.6
COCCCn1c(=C(C#N)C(N)=O)sc(=Cc2ccccc2OC(F)F)c1=O | 0.73 | -0.2
CC(Cc1ccccc1)=NNC(=O)CNC(=O)c1cccc(Br)c1 | 0.7 | 3.5
COc1ccc(CNC(=S)NN=C(C)c2ccccc2)cc1 | 0.66 | 2.8
O=C(NN=Cc1ccc([N+](=O)[O-])o1)c1cn2ccc3ccccc3c2n1 | 0.65 | 2.4
CC(CC(=O)Nc1ccc(Cl)cc1Cl)=NNC(=O)c1cnccn1 | 0.68 | -2.1
CCOc1ccc(C=NNC(=O)c2c(-c3ccccc3)noc2C)cc1 | 0.62 | 0.5
Cc1ccc(N(CC(=O)NN=Cc2cc(C)n(-c3ccccc3)c2C)S(C)(=O)=O)c(C)c1 | 0.69 | 0.4
COC(=O)c1sc(SC)c(S(=O)(=O)C(C)C)c1NN=C(C#N)C(=O)c1ccccc1 | 0.64 | 16
COc1cc(C=NNC(=O)CN2CCOCC2)ccc1OCC(=O)Nc1ccc(C)c(C)c1 | 0.66 | 0.0
COc1ccc(C2CC2C(=NO)c2ccccc2)cc1 (stereo not given) | 0.64 | 2.4
O=C(NN=Cc1ccc[nH]1)c1sc2ccccc2c1Cl | 0.65 | -1.8
CCCNC(=O)Cn1c(=CC(=O)C(C)(C)C)sc(=Cc2ccc(-c3cccc([N+](=O)[O-])c3)o2)c1=O | 0.69 | 8.6
COc1ccc(C=NNC(=O)c2ccc(CSc3nncn3C)cc2)cc1OC | 0.69 | 3.1
O=C(NN=Cc1cc2c(cc1Cl)OCO2)c1cc(-c2ccccc2)n[nH]1 | 0.7 | -16
COc1cc(C=NNC(=O)c2cnccn2)cc(OC)c1OC | 0.7 | 9.7
Brc1ccc(-n2cccc2C=Nn2cnnc2)cc1 | 0.78 | 8.7
COc1ccc(-n2c(=C(C#N)C(=O)NCCN3CCOCC3)sc(=Cc3cccs3)c2=O)cc1 | 0.72 | -7.2
Cc1cc(NN=Cc2c[nH]c3ccccc23)c2ccccc2n1 | 0.66 | -22
Cc1cc(NN=Cc2cccc(Cl)c2)nc(NCc2ccccc2)n1 | 0.65 | 2.6
CC(=NNC(=O)CNC(=O)CCc1ccccc1)c1ccc(Cl)c(Cl)c1 | 0.62 | 5.7
CCC(C=NNc1ccc(S(=O)(=O)N2CCCC2)cc1[N+](=O)[O-])CC | 0.71 | 5.8
CC(=NNC(=O)C(N)=O)c1cccc(C(F)(F)F)c1 | 0.71 | 3.5
CCOc1cccc(C=NN2C(C)CCCC2C)c1O (stereo not given) | 0.7 | 4.2
ON=C(COc1ccccc1O)c1ccccc1 | 0.69 | 1.1
Cc1cc(N=C/C=C2\N(C)c3ccccc3C2(C)C)n(CCC#N)n1 | 0.7 | 9.1
CC(=NNC(=O)COc1ccc(C(C)(C)C)cc1)c1ccc(N2CCOCC2)cc1 | 0.71 | -1.5
Cc1ccc(-c2ccc(C=Nn3cnnc3)o2)cc1Cl | 0.72 | -20
COc1ccc(C(C)=NNS(=O)(=O)c2cc(C)ccc2C)c(OC)c1 | 0.67 | 1.1
O=C(NN=Cc1ccc(Cl)cc1)c1sccc1OCc1ccc(F)cc1 | 0.69 | -5.2
CCCc1cc(=O)[nH]c(N=C(NC(=O)c2ccccc2)Nc2ccc3c(c2)OCCO3)n1 | 0.73 | 9.1
CC(C)COc1ccc(CNC(=S)NN=Cc2ccc([N+](=O)[O-])cc2)cc1 | 0.7 | 4.9
Cc1ccc(N2CCN(N=Cc3ccccc3)CC2)cc1 | 0.74 | -0.3
NC(=NOC(=O)c1ccc(F)cc1)c1cccc([N+](=O)[O-])c1 | 0.7 | 1.4
COc1ccc2oc(=O)c(C(C)=NNC(=O)c3ccncc3)cc2c1 | 0.68 | -12
NC(=NOC(=O)c1ccccc1Br)c1cccc([N+](=O)[O-])c1 | 0.65 | 5.1
O=C(CCc1ccccc1)NCC(=O)NN=Cc1ccc(O)cc1O | 0.69 | -7.3
Cc1ncc(CO)c(C=NNC(=O)c2ccccc2Br)c1O | 0.69 | i
S=c1[nH]nc(COc2ccccc2)n1N=Cc1ccco1 | 0.62 | 2.1
COc1ccc(-c2[nH]ncc2C=NNC(=O)c2cccs2)cc1OC | 0.65 | 3.6

Reprinted from the part before: six compounds, then new ones.
SMILES | E coli growth | UCH37 DUB inh
COc1ccc2oc(=O)c(C(C)=NNC(=O)c3ccncc3)cc2c1 | 0.68 | -12
NC(=NOC(=O)c1ccccc1Br)c1cccc([N+](=O)[O-])c1 | 0.65 | 5.1
O=C(CCc1ccccc1)NCC(=O)NN=Cc1ccc(O)cc1O | 0.69 | -7.3
Cc1ncc(CO)c(C=NNC(=O)c2ccccc2Br)c1O | 0.69 | i
S=c1[nH]nc(COc2ccccc2)n1N=Cc1ccco1 | 0.62 | 2.1
COc1ccc(-c2[nH]ncc2C=NNC(=O)c2cccs2)cc1OC | 0.65 | 3.6
CCCCCCOc1ccc(C(C)=NNC2=NCCN2)cc1[N+](=O)[O-] | 0.64 | 4.7
O=C(CSc1ccc2ccccc2n1)NN=Cc1ccccc1O | 0.64 | 0.2
COc1cccc(C=Nn2c(=S)n(C)c3ccccc32)c1OC | 0.7 | 4.1
CCC(=NNC(=S)Nc1ccc(OC)cc1)c1ccc(OC(F)F)cc1 | 0.68 | 0.9
Cc1c(Cl)c([N+](=O)[O-])nn1Cc1ccc(C(=O)NN=Cc2cccc(Br)c2)o1 | 0.76 | 4.5
CCCCNC(=O)C(C#N)=c1sc(=Cc2ccccc2OC(F)F)c(=O)n1CCCOC | 0.66 | -3.7
COc1ccccc1NS(=O)(=O)c1cccc(C(=O)NN=Cc2ccc(N3CCOCC3)cc2)c1 | 0.68 | -17
Cc1cc(C)cc(OCC(=O)NN=Cc2ccco2)c1 | 0.7 | 2.1
CON=C(C)CCS(=O)(=O)c1ccccc1 | 0.66 | -0.7
CC(=NNC(=O)c1nnn(-c2nonc2N)c1CN(C)c1ccccc1)c1cccnc1 | 0.7 | 1.8
CC(C)Oc1ccc(CNC(=S)NN=Cc2ccc([N+](=O)[O-])cc2)cc1 | 0.68 | 1.8
CCC(=O)N(C)CCc1cc2c(c(OC)c1C=NNC(=O)[C@H]1C[C@@H]1c1ccccc1)OCO2 | 0.69 | 4.4
Cc1cc(NN=Cc2cccc(F)c2)nc(NCc2ccccc2)n1 | 0.59 | 4.4
Cc1cc(C)c2c(c1)C(=NN=c1sc3ccccc3n1C)C(=O)N2 | 0.73 | 7.1
COc1ccccc1C=NNC(=O)CCSc1ccccc1 | 0.7 | -3.7

Looked up one by one from above (two):
SMILES | E coli growth | UCH37 DUB inh
Cc1cc(C)cc(OCC(=O)NN=Cc2ccco2)c1 | 0.7 | 2.1
Cc1cc(NN=Cc2cccc(F)c2)nc(NCc2ccccc2)n1 | 0.59 | 4.4

Other compounds
SMILES | E coli growth | UCH37 DUB inh
COc1ccc(C=NNC(=S)NC2CCS(=O)(=O)C2)cc1 (stereo not given) | 0.7 | 8.5
O=C(NN=Cc1cccnc1)c1ccc(NC(=O)c2ccc(F)cc2)cc1 | 0.69 | 1.1
O=C(CCC(=O)Nc1ccc(Br)cc1)NN=Cc1cc([N+](=O)[O-])ccc1O | 0.71 | 4.4
COc1ccc(CC(=O)NN=C(C)CC(=O)Nc2ccc(N(C)C)cc2)cc1 | 0.7 | 6.1
O=C(NN=Cc1ccco1)C1COc2ccccc2O1 (stereo not given) | 0.7 | 6.7
CN1CCN(CCC(=O)NN=Cc2ccccc2F)CC1 | 0.73 | 0.9
NC(=NOC(=O)c1ccccc1[N+](=O)[O-])c1ccccn1 | 0.67 | 3.8
CCCOc1ccc(-c2c(C(=O)NN=CC3CCCCC3)nnn2-c2nonc2N)cc1 | 0.73 | 3.1
Cn1cccc1C=NNC(=O)c1ccn[nH]1 | 0.7 | 4.8
COc1ccc(/C=C2\CCC/C(=C\C=NN(C)C)C2=O)cc1 | 0.67 | 12
O=c1[nH]c(=O)c2nnc(NN=Cc3ccccc3F)nc2[nH]1 | 0.62 | 13
COc1ccccc1/C=C/C=c1sc2nc(=O)c(Cc3ccccc3)nn2c1=O | 0.72 | 5.4
CCn1cc(C=NNC(=O)c2ccc3c(c2)OCO3)cn1 | 0.67 | 4.5
CCN(CC)c1ccc(C=NNC(=O)c2cccc(S(=O)(=O)N3CCOCC3)c2)c(O)c1 | 0.64 | -31
O=C(ON=C1CCS(=O)(=O)c2sccc21)c1c(F)cccc1F | 0.67 | 1.0

Quoted from the listing (2 entries):
SMILES | E coli growth | UCH37 DUB inh
CCN(CC)c1ccc(C=NNC(=O)c2cccc(S(=O)(=O)N3CCOCC3)c2)c(O)c1 | 0.64 | -31
O=C(ON=C1CCS(=O)(=O)c2sccc21)c1c(F)cccc1F | 0.67 | 1.0

Carrying on.
SMILES | E coli growth | UCH37 DUB inh
CC(=NNS(=O)(=O)c1ccc(Br)cc1)c1ccc(C)o1 | 0.71 | 2.2
Cc1nc2ccccc2c(=O)n1N=Cc1cc(Br)ccc1O | 0.68 | 2.8
CC(=NNc1ccc(C)c(Cl)c1)c1cccnc1 | 0.66 | 4.6
CN(C)C=Nc1nc(-c2ccc3ccccc3c2)cs1 | 0.65 | 2.7
Cc1cc(=O)[nH]c(NN=Cc2cc(C)n(-c3ccccc3)c2C)n1 | 0.63 | 3.1
O=C(NN=Cc1cc(Br)ccc1O)c1ccc(S(=O)(=O)N2CCCCC2)cc1 | 0.66 | 1.1
O=C(O)CCC(=NNc1ccc([N+](=O)[O-])cc1S(=O)(=O)N1CCOCC1)c1cccs1 | 0.71 | 7.7
CC(=O)Nc1ccc(C=NN2C(C)CCCC2C)cc1 (stereo not given) | 0.68 | 1.8
Oc1cccc(C=NNc2nn3cnnc3c3ccccc23)c1 | 0.71 | 8.0
COc1ccc(C(C)=NN=C(N)N)c(O)c1 | 0.65 | 1.5
COc1cc(NC(=O)CC(C)=NNC(=O)c2cccs2)c(OC)cc1Cl | 0.67 | 5.2
CCOC(=O)COc1ccccc1C=NNc1nnc2c3ccccc3n(C)c2n1 | 0.65 | 2.5
O=c1[nH]c(NN=Cc2cc3c(cc2[N+](=O)[O-])OCO3)nc2ccccc12 | 0.64 | 4.1
CN1C(=O)C(=NOC(=O)c2cccc3ccccc23)c2ccccc21 | 0.7 | -3.2
COc1ccc(C=NNC(=O)c2ccccc2O)cc1CSc1ccccn1 | 0.68 | -7.6

The last two compounds of the part before are carried over, then new ones follow.
SMILES | E coli growth | UCH37 DUB inh
CN1C(=O)C(=NOC(=O)c2cccc3ccccc23)c2ccccc21 | 0.7 | -3.2
COc1ccc(C=NNC(=O)c2ccccc2O)cc1CSc1ccccn1 | 0.68 | -7.6
CC(CC(=O)N1CCCC1)=NNC(=O)c1cc2ccccc2cc1O | 0.6 | 1.1
CC(CCc1ccccc1)=NNC(=O)c1ccccc1 | 0.71 | 2.3
COC(=O)C=c1sc2n(c1=O)CCN=2 | 0.65 | -2.7
CCOc1ccc(C=NNc2cc(=O)n(C)c(=O)n2C)cc1 | 0.69 | 3.8
CC1(C)CC(=O)CC(=NNC(=O)Cc2ccccc2)C1 | 0.68 | 4.9
CC(CC(=O)Nc1ccc(Br)cc1)=NNC(=O)c1cccc(O)c1 | 0.68 | 4.8
Cc1ccc(C(C)C)cc1OCC(=O)NN=Cc1ccc2c(c1)OCCO2 | 0.71 | 4.1
CC1CCN(Cc2c(C(=O)NN=Cc3ccc(C(C)C)cc3)nnn2-c2nonc2N)CC1 | 0.66 | 0.7
O=S(=O)(NN=C/C=C/c1ccccc1)c1ccccc1 | 0.69 | 8.9
N#CC(=NNc1ccc(Cl)cc1)C(=O)c1ccsc1 | 0.64 | 6.1
O=C(CCn1cnc(-c2ccccc2)c1-c1ccccc1)NN=Cc1ccc(O)cc1 | 0.68 | 3.4
O=C(O)COc1ccc(C=NNC(=O)COc2nsnc2N2CCOCC2)cc1 | 0.68 | 3.6
Cc1[nH]n(-c2ccccc2)c(=O)c1C=NNc1nncc(-c2ccccc2)n1 | 0.64 | 12
Cc1ccsc1C=NNC(=S)NCc1ccccc1 | 0.71 | -2.3
CCOC(=O)NN=Cc1c(C)nn(-c2ccccc2Cl)c1Cl | 0.64 | -1.2
Cc1c(Cl)cccc1-c1ccc(C=Nn2cnnc2)o1 | 0.7 | -3.1
O=C(NN=Cc1ccccc1)c1cccc2ccccc12 | 0.66 | 0.7
O=C(NN=Cc1ccc([N+](=O)[O-])o1)C(=O)Nc1ccc(C(=O)O)cc1 | 0.66 | 12
COc1ccc(C(=O)NCC(=O)NN=Cc2cn(C)c3ccccc23)cc1OC | 0.62 | 5.0
NC(=NOS(=O)(=O)c1cccc([N+](=O)[O-])c1)c1ccncc1 | 0.66 | 0.5
Cc1cc(NN=Cc2ccc3c(c2)OCO3)nc2ccccc12 | 0.54 | -41
Cc1cc(C(=O)NN=Cc2sccc2C)no1 | 0.65 | 9.4
CC(=NNC(=O)C1(C)CC1(Br)Br)c1cccc(NC(=O)c2ccc(C)o2)c1 (stereo not given) | 0.68 | 3.6
